Screening data deposited in PubChem BioAssay by Center for Chemical Genomics, University of Michigan.
TAR Tat displ = HIV-1 TAR-Tat binding disruption; z-score (no concentration beside the values); HIV-1 TAR RNA, Tat peptide displacement FRET; stronger effect = higher value; actives 0.6% (n = 100,000); AID 1259389;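 note: score is relative to mean and SD of negative controls; some compounds called inactive have numbers as strong as hits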
CDC25B-CDK2 inh = human CDC25B-CDK2/CyclinA binding inhibition | AID 1259370 | HTRF CDC25B-CDK2/CyclinA binding, anti-His/anti-Flag; stronger effect = higher value | P30305+P24941 | actives 0.72% (n = 94,000) | z-score (concentration not given with the values);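 note: score is relative to mean and SD of negative controls; strong numbers were not always called active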
Starred values were filed as active, the others as inactive; . = not tested or not shown.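 Rule for the calls: active = z-score from 3 up in half or more of its runs; inactive = the rest.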

Below each compound – TAR Tat displ, CDC25B-CDK2 inh
- Cn1cc(S(=O)(=O)N2CCOCC2)cc1C(=O)N1CCCCC1
 : 1.9, .
- CCOC(=O)c1nc(Nc2ccc(F)c(Cl)c2)c2c(C)noc2n1
 : 1.4, .
- Cn1c(=O)[nH]c(=O)c2c1nc(N1CCCCC1)n2Cc1ccccc1
 : -0.26, 0.85
- CC(=O)OCC12COC(c3ccc(OC(C)=O)cc3)C(C(C)=CC1C)C2C (stereo not drawn)
 : 2.4, -0.26
- Cc1nn2cc(-c3cccc(Br)c3)nc2s1
 : 0.42, -2.6
- CN1CCCc2cc(C(CNC(=O)C(=O)NC3CCCC3)N3CCOCC3)ccc21 (stereo not drawn)
 : 0.48, .
- CC(C)Cn1c(=O)c(C2=NS(=O)(=O)c3ccccc3N2)c(O)c2ccccc21
 : 0.64, .
- Cc1cc(C(F)(F)F)cc(-n2cc(C#N)c(N)n2)n1
 : ., -2.4
- Cc1ccc2c(Cl)c(C(=O)N(Cc3sccc3C)C3CCS(=O)(=O)C3)sc2c1 (stereo not drawn)
 : 1.8, -0.87
- O=C(c1cccc2cnccc12)N1CCN(c2ccccn2)CC1
 : 0.07, -1.7
- Cc1cc(-c2ccccc2)nc2cc(-c3nc(-c4cccs4)no3)nn12
 : -0.86, 2.9
- CC1CCN(Cc2nc3c(c(=O)n(C)c(=O)n3C)n2CCN2CCOCC2)CC1
 : 0.09, -1.1
- COc1cccc(NS(=O)(=O)c2ccc3c(c2)n(C)c(=O)n3C)c1
 : 0.15, -1.1
- O=S(=O)(Nc1cc(C(F)(F)F)ccc1N1CCc2ccccc2C1)c1cccc2nonc12
 : ., -1.7
- Cc1cc(C(=O)NC2CCN(Cc3c(F)cccc3Cl)CC2)no1
 : ., -1.1
- CCCC1c2cccn2CCN1C(=O)Nc1ccc(Br)cc1F (stereo not drawn)
 : -1.1, .
- Cc1noc2ncn(CC(=O)Nc3cc(F)ccc3F)c(=O)c12
 : -0.01, .
- O=C1CCCc2cc(S(=O)(=O)N3CCOCC3)ccc2N1
 : 1.7, .
- CCOC(=O)c1cnc(SCC(=O)N2CCCCC2C)nc1N (stereo not drawn)
 : -0.49, .
- COc1ccc(S(=O)(=O)n2nc(C)c(S(=O)(=O)N3CCCC(C)C3)c2C)cc1 (stereo not drawn)
 : 0.31, .
- CCOC(=O)c1nc(Nc2cc(OC)ccc2OC)c2ccccc2n1
 : 2.4, -1.2
- Cc1ccc(S(=O)(=O)N2CCN(S(=O)(=O)c3ccc4ccccc4c3)CC2)cc1
 : 0.34, -0.97
- Brc1cccc(CNCCSc2nnnn2-c2ccccc2)c1
 : 0.76, -0.55
- Cc1c(Cc2ccccc2)c(-n2ccnc2C)n2c(nc3ccccc32)c1C#N
 : -1.2, -0.73
- CCC(C)n1c(=O)c2sccc2n2c(CCCC(=O)NCCc3c[nH]c4ccccc34)nnc12 (stereo not drawn)
 : -0.26, .
- O=S(=O)(c1ccccc1Cl)N1CCCC1c1cccs1 (stereo not drawn)
 : 0.03, -1.4
- Cc1cccc(Cl)c1NC(=S)NCC1CCCO1 (stereo not drawn)
 : ., 0.3
- Nc1c(-c2nc(-c3ccc4c(c3)OCO4)cs2)c2ccccn2c1C(=O)c1ccccc1
 : 3.8, -1.2
- CC(=O)OC[C@H](OC(C)=O)[C@H](OC(C)=O)[C@@H](O)[C@H]1SC[C@@H](C(=O)N(C)C)N1C(C)=O
 : ., -1.6
- CC1CCN(C(=O)CCS(=O)(=O)c2ccc3c(c2)NC(=O)CS3)CC1
 : -0.08, .
- c1cncc(CNc2nn3nnnc3c3ccccc23)c1
 : -0.2, -1.4
- O=C(NCCN1CCCc2ccccc21)Nc1cccc(Cl)c1
 : 0.48, -1.2
- Cc1ncc(-c2ccc(S(=O)(=O)Nc3ccc(C)c(C)c3)cc2)o1
 : 1.1, .
- CN1C(=O)c2ccc(-c3nc4ccc(Cl)cc4c(=O)o3)cc2C1=O
 : ., -0.48
- CC(C)(C)c1ccc(NC(=O)CN2CCOCC2)c(NC(=O)C(Cl)(Cl)Cl)c1
 : ., -1.9
- O=C(CC1(O)C(=O)N(CCc2ccccc2)c2ccc(Br)cc21)c1ccccc1 (stereo not drawn)
 : ., 0.42
- COc1ccc(Cc2noc(Cc3c(F)cccc3Cl)n2)cc1
 : 0.69, .
- O=C(NCCCN1CCc2ccccc2C1)C1CCCN(c2nnc(-n3cccc3)s2)C1 (stereo not drawn)
 : 1.3, .
- COc1cc(OC)c(Nc2ncnc3onc(-c4ccc(F)cc4)c23)cc1Cl
 : 0.8, .
- Cc1ccccc1N1CSC2=C(C#N)C(c3ccc(Cl)cc3)CC(=O)N2C1 (stereo not drawn)
 : -2.6, 2
- Cn1c(SCc2ccccc2F)nnc1-c1ccc2c(c1)OCCCO2
 : 1.6, .
- COc1ccc(-c2noc(-c3cccc(OC)c3)n2)cc1
 : ., -1.5
- CCC1CCCCN1C(=O)CSc1nnc(C)n2c1cc1occc12 (stereo not drawn)
 : 3.5, .
- O=C(Cn1c2ccccc2c2cn[nH]c(=O)c21)N1CCOCC1
 : ., -1.5
- N#Cc1nc(/C=C/c2ccc(Cl)cc2)oc1N1CCN(C(=O)c2ccccc2)CC1
 : -0.36, -0.07
- COc1ccc(OC)c(NC(=O)NC(C)c2c(-n3cccc3)sc(C)c2C)c1 (stereo not drawn)
 : 0.78, 1.2
- COc1ccc(-c2noc(Nc3cc(C)cc(C)c3)n2)cc1OC
 : 1.3, .
- O=C(CCC(=O)N1CCOc2ccccc21)NCc1ccco1
 : -0.79, -2
- CC1CCCCN1S(=O)(=O)c1cc(F)ccc1CN1C(=O)c2cccnc2C1=O (stereo not drawn)
 : -0.65, .
- COc1ccc(S(=O)(=O)[C@H]2CS(=O)(=O)C[C@@H]2N2CCCCC2)cc1
 : 2.1, -0.03
- COC(=O)c1c(NC(=O)Cn2nc([N+](=O)[O-])c(Br)c2C)sc2c1CCC(C)C2 (stereo not drawn)
 : 0.3, .
- Cc1ccc([N+](=O)[O-])c(C(=O)NNC(=S)Nc2cccc(Cl)c2)c1
 : ., -2.3
- CCN(CC)CCn1cnc2scc(-c3ccccc3)c2c1=O
 : 0.62, -1.7
- COc1ccc(NS(=O)(=O)c2ccc3c(c2)C(=O)NCCO3)cc1
 : 2.7, .
- CCc1ccc(C2NC(=O)c3c(sc4c3CCN(C)C4)N2)cc1 (stereo not drawn)
 : -4.3, 0.52
- Cn1c(=O)c2c(ncn2CC(=O)N2CCOCC2)n(C)c1=O
 : 1.3, -1
- COc1nc(-c2ccc(Cl)cc2)ccc1-c1noc(-c2cccnc2)n1
 : -1.2, 1.4
- O=C(O)c1nccnc1C(=O)N1CCN(c2ccc(C(F)(F)F)cn2)CC1
 : ., -0.81
- Cc1ccc(S(=O)(=O)N2CCCC(c3nc(-c4ccccc4)no3)C2)cc1 (stereo not drawn)
 : 2, .
- CC(C)NC(=O)Cn1nc(-c2ccco2)ccc1=O
 : -0.35, .

Some of the entries above, set out differently.
SMILES: N#Cc1nc(/C=C/c2ccc(Cl)cc2)oc1N1CCN(C(=O)c2ccccc2)CC1
  TAR Tat displ: -0.36; CDC25B-CDK2 inh: -0.07

SMILES: COc1ccc(OC)c(NC(=O)NC(C)c2c(-n3cccc3)sc(C)c2C)c1 (stereo not drawn)
  TAR Tat displ: 0.78; CDC25B-CDK2 inh: 1.2

SMILES: COc1ccc(-c2noc(Nc3cc(C)cc(C)c3)n2)cc1OC
  TAR Tat displ: 1.3; CDC25B-CDK2 inh: .

SMILES: O=C(CCC(=O)N1CCOc2ccccc21)NCc1ccco1
  TAR Tat displ: -0.79; CDC25B-CDK2 inh: -2

Continuation.
Below each compound – TAR Tat displ, CDC25B-CDK2 inh
- CC1CC(NC(=O)C(=O)Nc2ccc(Cl)cc2Cl)CC(C)(C)C1 (stereo not drawn)
 : ., -0.04
- CCOc1ccc(COC2C(C3COC(C)(C)O3)OC3OC(C)(C)OC32)cc1 (stereo not drawn)
 : ., -0.66
- CCOC(=O)C1CCN(S(=O)(=O)c2ccc(-c3ccc(=O)[nH]n3)o2)CC1
 : 2.4, .
- O=C(Nc1ccc(Br)cc1F)c1cc(CN2CCOCC2)on1
 : -0.35, .
- Cc1noc2ncnc(NCc3ccc(F)cc3)c12
 : -0.1, .
- Cc1c(CNC(C)(C)C)c(C(=O)O)c(C)n1Cc1ccc(F)cc1
 : 1.6, .
- CC(=O)Oc1ccc2ccccc2c1C1=NN(C(C)=O)C(c2cccc(Br)c2)O1 (stereo not drawn)
 : 1.4, .
- O=C(COc1ncnc2cc(Cl)ccc12)NNC(=O)c1cccc2ccccc12
 : ., -1.4
- O=C1[C@H]2CCCC[C@H]2C(=O)N1OCc1ccccc1
 : ., -0.98
- Cc1cc(C)c2c(-n3cccc3)c(C(=O)NC3CCCC3)sc2n1
 : 0.96, -1.8
- COc1ccc(-c2nc3scc(CCNS(=O)(=O)c4c(C)noc4C)n3n2)cc1
 : 0.9, .
- CNC(=O)N1c2ccccc2NC2=C(C(=O)CC(C)(C)C2)C1c1ccc(C)cc1 (stereo not drawn)
 : 0.23, .
- NS(=O)(=O)c1ccc(NC(=O)CN2C(=O)c3ccccc3S2(=O)=O)cc1
 : -0.97, -0.5
- Cc1ccc2c(n1)sc1c(=O)n(-c3ccccc3C)nnc12
 : 1.5, -2
- Cc1ccc2c(n1)CC(C)(C)C/C2=N/O
 : ., -1.9
- CCn1c(=O)c2c(nc3n2CCN3c2ccc(C)c(C)c2)n(C)c1=O
 : 2.8, .
- COC(=O)c1cc(NC2(c3ccccc3)C(=O)c3ccccc3C2=O)cc(C(=O)OC)c1
 : -0.27, .
- COC(=O)c1cc(-c2ccc(Cl)cc2)no1
 : -0.93, -1.8
- CC(C)Nc1cc(-c2ccccc2)nc2nncn12
 : 0.43, 0.59
- CC1=NN(c2ccc(Cl)c(C(=O)O)c2)C(=O)/C1=C\c1cnn(-c2ccc(C)c(C)c2)c1
 : ., -2.4
- CCOC(=O)c1s/c(=N/N=C(C)C)n(C)c1C
 : ., -0.88
- Cn1cc(-c2cc3n(n2)CCCN3C(=O)CCC(=O)NC2CCCC2)c2ccccc21
 : 1.4, .
- O=C(Nc1nc2c(s1)CCCCCC2)Nc1ccccc1Cl
 : -0.67, .
- CC1Cc2cc(S(=O)(=O)CCC(=O)Nc3ccc(F)cc3Cl)ccc2N1C(=O)C1CC1 (stereo not drawn)
 : 0.52, .
- Cc1cc(=O)nc2c3ccccc3n(C(C)C(=O)N3CCc4ccccc43)n12 (stereo not drawn)
 : 0.35, -1.2
- COc1ccc(-c2noc(-c3c(F)cccc3F)n2)cc1OC
 : 3.2, -6.7
- CC(C)(C)C(=O)Nc1c(Br)c(C2CC2)nn1-c1ccccc1
 : ., -0.34
- COC(=O)c1ccccc1S1=NS(=O)(=O)c2ccccc21 (stereo not drawn)
 : ., -2.1
- COc1ccc(CNCc2ccc3c(c2)OCO3)cc1OC
 : 0.62, -0.85
- Cc1ccc(C)c(S(=O)(=O)N(CCS(=O)(=O)N2CCNCC2)C2CCCC2)c1
 : 0.36, .
- COC(=O)CSc1ncnc2sc3c(c12)CCCC3
 : 2.8, -0.7
- COc1ccc(Cl)cc1NS(=O)(=O)c1ccc2c(c1)S(=O)(=O)N=CN2
 : -0.76, .
- O=C(O)CN1C(=O)/C(=C\c2ccc(-c3cccc4c3C(=O)c3ccccc3C4=O)o2)SC1=S
 : ., 10*
- COc1ccccc1NC(=O)C1=Cc2sc3c(c2CS1)CCCC3
 : 0.61, .
- CSc1cccc(NS(=O)(=O)c2cc(-c3cc(C)no3)ccc2C)c1
 : -0.29, .
- COCCCNc1nc(N)c([N+](=O)[O-])c(Nc2ccc(C)cc2)n1
 : -0.12, .
- O=C1C2CCCN2C(c2cccc(Cl)c2)N1c1cccc(Cl)c1 (stereo not drawn)
 : 0.53, 0.74
- CC(C)(C)C1(O)C(=O)Nc2ccccc21 (stereo not drawn)
 : 0.95, 0.98
- CCN(CC)CCNC(=O)C1=C(C)C(=O)OC12CCN(S(C)(=O)=O)CC2
 : 0.86, .
- O=S(=O)(Cc1ccc(Cl)cc1)c1nc2ccccc2[nH]1
 : ., -0.25
- Fc1ccc(-c2cn3nc(C4CCCCC4)sc3n2)cc1
 : 2.3, -1.8
- CC1(c2ccccc2)CC(C)(C)N(C(=O)CSc2nnc(N)s2)c2ccccc21 (stereo not drawn)
 : 1.1, 0.16
- O=c1c2ccccc2n2c(-c3cccnc3)nnc2n1Cc1ccc(F)cc1
 : 1.4, -1.7
- Cn1nc(Oc2nc(N3CCOCC3)nc(N3CCOCC3)n2)ccc1=O
 : ., -0.3
- CN1CCN(S(=O)(=O)c2ccc3c(c2)OCC(C(=O)N2CCCCC2)O3)CC1 (stereo not drawn)
 : 0.49, .
- Cc1nn2c(=O)cc(COc3cccc(C)c3C)nc2s1
 : -0.75, -1
- COC(=O)C(C)Sc1nc(-c2ccc(F)cc2)nc2c1c(=O)n(C)c(=O)n2C (stereo not drawn)
 : ., -0.94
- Cn1ncc2c(Nc3cccc(Cl)c3)nc(NC3CCCC3)nc21
 : 1.8, .
- Cc1cc(NC(=O)c2cc(-c3ccccc3)c(C(F)(F)F)s2)no1
 : ., -2.1
- CC1=C(C(=O)OCC2CCCO2)C(c2cc3c(cc2Br)OCO3)C2=C(CCCC2=O)N1 (stereo not drawn)
 : 0.72, -1.4
- CCCSC1=C(C#N)C(c2ccc(Cl)cc2)CC(=O)N1 (stereo not drawn)
 : 0.3, -1.4
- Cn1cc(S(=O)(=O)N2CCc3ccccc32)cc1C(=O)N1CCc2ccccc21
 : 0.7, .
- CC(=O)NC(=O)CCSc1ccccc1C(=O)NC(C)=O
 : ., -1.3
- COc1ccc(Cl)cc1-n1nnc(-c2nc(-c3ccc(F)cc3)no2)c1N
 : 0.63, .
- CCc1cc2c(NCCN(CC)Cc3ccccc3)ncnc2s1
 : 0.68, .

Compounds as they come. About 0.97% of those tested had a hit in this group.
